NPYLR7 ag: agonists of mosquito NPYLR7 receptor, primary screen, cell-based, Aedes aegypti, calcium fluorescence, mosquito biting behavior. Aedes aegypti neuropeptide Y-like receptor 7 (NPYLR7). AID 1259423, 2018. activation, % at 10 µM. 270,000 tested, 0.15% active. HEK293T NPYLR7/Galpha15, GCaMP6s calcium fluorescence; in the data active = activation above about 40%;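 note: 0% = vehicle and 100% = reference agonist at the receptor; some compounds past the cut are filed as inactive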
NPYLR7 ag max-min: also measured in NPYLR7 ag; calls as there; activation, %; measured here: Max-Min RFU normalised activation; some inactives read as strong as hits;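 span of the calcium signal over five minutes; 0% = vehicle and 100% = native peptide agonist; compound fluorescence can raise it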
Numbers without * were called inactive; & = joins results of further samples. An excerpt; the hit share may differ from the screen's.

canonical_smiles | NPYLR7 ag | NPYLR7 ag max-min
Cn1ncc2c(NC3CCc4cccnc43)nc(-c3cccnc3)nc21 (stereo not drawn) | 1 | -3
Cc1nc(C(=O)N2CCCC(N3CCN(Cc4ccc5c(c4)OCO5)CC3)C2)cs1 (stereo not drawn) | 6 | 4
Cc1ccc(N(CCOC(=O)c2ccc(Br)cc2)S(=O)(=O)c2ccc(NC3=NS(=O)(=O)c4ccccc43)cc2)cc1 | -13 | -24
Nc1ncnc(Nc2c(F)cccc2F)c1[N+](=O)[O-] | 0 | -3
CN1CCCCCC1C(=O)N1CCC(N2CCC(C(=O)NC3CC3)CC2)CC1 (stereo not drawn) | 3&-3 | 3&3
O=S(=O)(/C=C/c1ccccc1)NCc1ccccc1CN1CCOCC1 | 8 | 2
CCCC(=O)Nc1cc(C(=O)N(C)Cc2noc(-c3ccccc3)n2)ccc1C | 8 | 3
Nc1ccnc2ccc(Cl)cc12 | -4 | 4
O=S1(=O)CCC(NS(=O)(=O)c2ccccc2)C1 (stereo not drawn) | 4 | 2
CCOCCCn1c(C)c(C)n2c3c(=O)n(Cc4ccccc4C)c(=O)n(C)c3nc12 | 0 | 0
CC(C)c1cccc(C(C)C)c1NC(N)=S | -1 | -1
O=c1cc(C(F)(F)F)c2ccc(OS(=O)(=O)c3cccs3)cc2o1 | 8 | 11
CN1C(=O)NC(c2ccccc2F)C2=C1CN(CC1CCCO1)C2=O (stereo not drawn) | -4 | -2
O=S(=O)(Cc1cccc(F)c1)c1c[nH]c2ccccc12 | -1 | 0
COc1ccc(NC(=O)c2cc3cccc(OC)c3oc2=O)cc1OC | -7 | -14
CCCCc1cnc2c(c1SCC(=O)Nc1cccc(C)c1C)c(=O)n(C)c(=O)n2C | -1 | 4
COc1ccc(/C=C/CN2CCC(n3cc(CCO)nn3)CC2)cc1 | -4 | -9
CC(=O)c1ccc(F)cc1OCC(=O)N1CCCCC1C (stereo not drawn) | 14 | 10
Cc1csc(NC(=O)CN(C)C2CCc3ccccc32)n1 (stereo not drawn) | 4 | 1
COc1ccc(-c2c(=O)n(OCc3ccccn3)c3ccccc3[n+]2[O-])cc1OC | -10 | -13
CCOC(=O)c1c(C)c(C(=O)NC(C)COC)c(C)n1C (stereo not drawn) | 10 | 15
Nc1nnc(-c2ccccc2)c(-c2ccccc2)n1 | -2 | -4
Cc1cc(C(=O)NCCc2ccccn2)nc2cc(-c3ccccc3)nn12 | 3 | 7
COc1cccc(NC(=O)N2CCC(CCC(=O)Nc3ccccc3)CC2)c1 | -1 | -1
Cc1c(NC(=O)c2cc3c(ccc4ccccc43)oc2=O)cccc1C(=O)O | -7 | -10
CCSc1nn(CC(=O)Nc2ccc(C)c(C)c2)c(N)c1S(=O)(=O)c1ccc(C)cc1 | 7 | -2
COc1ccccc1N(C)S(=O)(=O)c1ccc(C(=O)O)cc1 | 2 | 2
Cc1c(C(C)NCc2nc(C(C)C)cs2)cnn1-c1ccccc1 (stereo not drawn) | 16 | 4
COCCCn1c(C)cn2c3c(=O)n(CC(=O)c4ccccc4)c(=O)n(C)c3nc12 | -2 | -2
Cc1cccc(N2C(=O)/C(=C/c3cc(C)n(-c4cccc([N+](=O)[O-])c4)c3C)C(=O)NC2=S)c1 | -6 | -8
Cc1nc2c(c(NCCCc3nc4c(C)c(C)ccc4[nH]3)n1)CCNC2 | 1 | 0
O=c1[nH]nc(-c2cccs2)c2sc(N3CCCC3)nc12 | -4 | -4
COc1ccc(S(=O)(=O)N2CCc3onc(-c4ccccc4F)c3C2)cc1 | 1 | -3
CC(=O)c1cc(Br)ccc1N1CCCC1 | -2 | -2
O=C(CSCc1ccccc1Cl)NCc1noc(-c2ccco2)n1 | 7 | 6
O=C(NCC1CCN(c2nc(Cc3ccc(F)cc3)ns2)CC1)Nc1cc(C(F)(F)F)cc(C(F)(F)F)c1 | -9 | -14
O=C(c1cc2nc(-c3cccs3)cc(C(F)(F)F)n2n1)N1CCN(c2ccc(F)cc2)CC1 | 2 | 2
O=C(NC1CC1)c1ccc(=O)n(Cc2ccccc2Cl)c1 | 6 | 3
NC(=O)C1CCN(C(=O)CCc2csc3nc(-c4ccc(Cl)cc4)cn23)CC1 | 3 | 2
Cc1ccc(C)c(OC(C)C(=O)N(C)Cc2n[nH]c3c2CCC3)c1 (stereo not drawn) | 1 | -2
Cc1cc(S(=O)(=O)N2CCCCC2CCNC(=O)C(=O)NC(C)C)ccc1F (stereo not drawn) | 5 | 0
O=C(c1cccc(C(F)(F)F)c1)N1CCc2nc(Cc3cccc(F)c3)nc(N3CCOCC3)c2C1 | -2 | 11
O=C(O)c1cc2c(nc1N1CC(c3cccnc3)C1)CCC2 | 19 | 7
O=C(NCc1ccco1)c1ccc(CSc2nnc(Cc3ccccc3)n2-c2ccccc2F)cc1 | 7 | 11
Cc1cc(C)c2[nH]c(O)c(N=NC(=O)COc3cccc(Br)c3)c2c1 | 4 | -3
Cc1c(Br)c([N+](=O)[O-])nn1CC(=O)NC1CCc2ccccc21 (stereo not drawn) | -3 | -7
Cc1cc(S(=O)(=O)N2CCN(c3ccccc3C)CC2)ccc1F | 5 | 2
CN1CCN(c2ccnc3ccccc23)CC1C(=O)O (stereo not drawn) | 0 | -1
O=C(NC(C(=O)N1CCCC1)C1CCN(C(=O)c2ccc(F)cc2)CC1)C1CC1 (stereo not drawn) | -5 | 12
CCCCN(Cc1cccn1Cc1ccc(Br)cc1)C(=O)CN(CCCC)C(=O)C(C)(C)CCl | -1 | 0
CCOC(=O)CNC(=O)N1CCCC(C(=O)c2ccc(OC)cc2C)C1 (stereo not drawn) | 4 | 1
COc1c(C)cc(S(=O)(=O)Nc2ccc3c(c2)CC(=O)N3C)cc1C | 12 | 13
CCCc1nnc2sc(C3CCN(C4CCOCC4)CC3)nn12 | 3 | 0
O=C(c1ccc(Br)o1)N1CCN(c2nc3ccc(OC(F)(F)F)cc3s2)CC1 | 3 | 4
O=S(=O)(c1ccc(NCCc2ccccc2)cc1)C(F)(F)F | 5 | 0
O=C1C2C3C=CC(C3)C2C(=O)N1CCN1CCN(S(=O)(=O)c2cccs2)CC1 (stereo not drawn) | 0 | -1
C=C(C)CCC(C)N1CCC(CCOC)(C(=O)OCC)CC1 (stereo not drawn) | -1&22 | -2&9
CC(C)Cc1cc(-c2n[nH]c(CCc3ccccc3)n2)nc(N)n1 | -5 | -7
COc1cc(Br)c(C=Cc2ccc3ccccc3n2)cc1O | 0 | 5
COc1cccc(-c2cc(C(=O)N3CCN(C(=O)C(C)(C)C)CC3)c(C)n2-c2ccccc2F)c1 | -2 | 4

More compounds follow.
canonical_smiles | NPYLR7 ag | NPYLR7 ag max-min
COc1ccc(CN2CCNC(=O)C2CC(=O)N(C)CCN2CCCCC2)c(OC)c1 (stereo not drawn) | 7 | 5
COc1cccc(C2CC(c3cc(C)ccc3C)=NN2C(=O)CN2CCC3(CC2)OCCO3)c1 (stereo not drawn) | 17 | 16
CCCc1c(C)nn(-c2ccc(C(=O)NCc3ccco3)cc2)c1C | -1 | -4
Cn1c(=O)c2cc(C(=O)NCCc3ccccc3)n(Cc3ccccc3)c2n(C)c1=O | 3 | 1
Cc1nn(Cc2ccc(C(=O)N3CCOCC3)cc2)c(C)c1[N+](=O)[O-] | -12 | -10
CC1CC1C(=O)NCC1(c2ccc(Cl)cc2Cl)CCOCC1 (stereo not drawn) | 5 | 4
Cc1cc(OCC2CN(C(=O)c3ncc[nH]3)CCO2)ccc1Cl (stereo not drawn) | 2 | 15
CC(C)(C)c1ccc(C(=O)NCC(=O)NCCCc2nccs2)cc1 | 17 | 14
COc1cccc(C(CC(=O)NCc2ccccc2)c2c[nH]c3ccccc23)c1OC (stereo not drawn) | -3 | 2
CCn1nnnc1SCCC(=O)Nc1c(C(C)C)cccc1C(C)C | -2 | 2
CSCC(C)(O)CNc1nc(-c2cccnc2)nc(C)c1C (stereo not drawn) | -18 | -17
Cc1ccc(C(CCNCc2ccccc2)c2ccco2)cc1 (stereo not drawn) | -1 | -1
COc1ccc(CN(Cc2ccco2)CC(O)COc2ccccc2)cc1OC (stereo not drawn) | -1 | 9
COCCn1cc(NC(=O)Nc2ccc(C(C)=O)cc2)c2ccccc21 | -1 | -2
CCN1CCc2c(sc3nc(C)nc(N4CCN(C(=O)c5ccco5)CC4)c23)C1 | 1 | 0
COc1ccc(-n2nnc3c(=O)n(CC(=O)N4CCc5ccccc54)cnc32)cc1OC | -4 | -10
O=C(CCOc1ccccc1-c1ccccc1)N1CCCN(CC2CCCO2)CC1 (stereo not drawn) | 0 | -3
CCS(=O)(=O)Oc1ccccc1-c1nc2cc(S(=O)(=O)CC)ccc2o1 | 23 | 25
COc1ccc(N2CCN(C(=O)CNC(=O)c3cc4cc(OC)ccc4n3C)CC2)cc1 | -2 | 7
COCCn1c(C(C)NCCc2ccccc2)nc2ccccc2c1=O (stereo not drawn) | 6 | 5

Complete entries from above. Screens in order: NPYLR7 ag, NPYLR7 ag max-min
Listed for `COCCn1cc(NC(=O)Nc2ccc(C(C)=O)cc2)c2ccccc21` = -1, -2
Listed for `COc1ccc(N2CCN(C(=O)CNC(=O)c3cc4cc(OC)ccc4n3C)CC2)cc1` = -2, 7
Listed for `CC1CC1C(=O)NCC1(c2ccc(Cl)cc2Cl)CCOCC1` (stereo not drawn) = 5, 4

Additional structures.
compound	NPYLR7 ag	NPYLR7 ag max-min
O=C(O)c1ccccc1NC(=O)c1cc2ccccc2oc1=O	-4	-16
CC(C)(C)c1cc2nc(-c3ccccc3Cl)cc(C(=O)Nc3ccccc3F)n2n1	21&-11	21&-10
COC(=O)c1c(NC(=O)C=Cc2ccccc2)sc2c1CCC2	6	12
COC(=O)C(Cc1ccccc1)NC(=O)C(=O)c1ccc(C2CCCCC2)cc1 (stereo not drawn)	-6	-15
Cc1cc(=O)[nH]c(-n2nc(C)cc2NC(=O)C(c2ccccc2)c2ccccc2)n1	-3	-3
CC(=O)NC(C(=O)Nc1ccc(C)cc1Cl)C(C)C (stereo not drawn)	2	1
CC1Cc2cc(-c3cc(CNC(=O)CSc4ccncc4)no3)ccc2O1 (stereo not drawn)	-3	-4
COc1ccc(/C=C2\Oc3c4c(cc(C)c3C2=O)OCN(CC2CCCO2)C4)cc1OC (stereo not drawn)	15	10
CCCC(=O)OCC(O)CN(Cc1ccc(OC)c(OC)c1)C1CC1 (stereo not drawn)	19	28
O=C(Nc1nccs1)C(=O)NC(c1ccc(Cl)cc1)C1CCC1 (stereo not drawn)	12	9
Oc1ccccc1-c1n[nH]c(/C=C/c2cccs2)n1	11	9
COc1cccc(CNC(=O)C2CCN(C(=O)[C@@H](Cc3ccccc3)NC(=O)Nc3cc(F)cc(C(F)(F)F)c3)CC2)c1	30	25

Of the compounds above, these contain a tert-butyl group:
compound	NPYLR7 ag	NPYLR7 ag max-min
COc1cccc(-c2cc(C(=O)N3CCN(C(=O)C(C)(C)C)CC3)c(C)n2-c2ccccc2F)c1	-2	4
CC(C)(C)c1ccc(C(=O)NCC(=O)NCCCc2nccs2)cc1	17	14
CC(C)(C)c1cc2nc(-c3ccccc3Cl)cc(C(=O)Nc3ccccc3F)n2n1	21&-11	21&-10

Three successive compounds already listed, for reference:
compound	NPYLR7 ag	NPYLR7 ag max-min
O=C(Nc1nccs1)C(=O)NC(c1ccc(Cl)cc1)C1CCC1 (stereo not drawn)	12	9
Oc1ccccc1-c1n[nH]c(/C=C/c2cccs2)n1	11	9
COc1cccc(CNC(=O)C2CCN(C(=O)[C@@H](Cc3ccccc3)NC(=O)Nc3cc(F)cc(C(F)(F)F)c3)CC2)c1	30	25

Remaining list, next part:
compound	NPYLR7 ag	NPYLR7 ag max-min
CCOC(=O)N1CCN(/C=C(\C#N)C(=O)NCc2ccc(OC)cc2)CC1	5	5
O=C(NCc1cccc(-c2ncc(-c3ccc(F)cc3)[nH]2)c1)c1ccc([N+](=O)[O-])o1	14	14
CCOC(=O)c1cc(C2CC2)n(C2CCN(C(=O)c3ccc4c(c3)OCO4)CC2)n1	14	8
CC(C)(N)c1cn(C2CCN(Cc3cncn3Cc3ccccc3)CC2)nn1	-8	-8
CC1=Nn2c(nnc2C(C)(C)C)SC1	2	-3
CC1CC(C)CN(Cc2nc3c(c(=O)n(C)c(=O)n3C)n2Cc2ccc(F)cc2)C1 (stereo not drawn)	9	4
COC(Cn1ccnc1-c1ccc(NC(C)=O)cc1)c1cccs1 (stereo not drawn)	3	0
O=C(c1cn(C2CCNCC2)nn1)N1C[C@H]2C[C@H](C1)[C@@H]1CCCC(=O)N1C2	0	-8
CCC(C)NC(=O)CSc1nc2ccccc2[nH]1 (stereo not drawn)	12	13
CC(C)NC(=O)C(=O)N1CCN(c2ccnc3c(F)ccc(F)c23)CC1	-6	-6
CC12CC(c3ccccc3O1)C(C(=O)Nc1cccc(C(F)(F)F)c1)C(=O)N2CCO (stereo not drawn)	-5	2
Fc1ccccc1Nc1nc(-c2ccccc2Cl)nc2ccccc12	12	11
CCOC(=O)c1c(C)c(C(=O)NC(C)CC)c(C)n1C (stereo not drawn)	2	26
Cc1cccc(-n2nc3c(c2NC(=O)CC24CC5CC(CC(C5)C2)C4)CSC3)c1	1	0
Cc1c(C(=O)N2CCN(S(=O)(=O)c3c(Cl)cccc3Cl)CC2)cnn1C	8	10
COc1ccc(C2c3ccsc3CCN2CC(=O)N2CCN(C(=O)c3cccs3)C(C)C2)cc1 (stereo not drawn)	16	7
